Compound activity from PubChem BioAssay.
hNpr1 antagonist – antagonists of human natriuretic peptide receptor Npr1 | HEK293 hNpr1 GloSensor cGMP, ANP-stimulated luminescence | Potency, µM (series often up to 46.3 µM), for the others: at the top dose activity change, negative = inhibition, most hits filed as inhibitors | actives 1.6% (n = 76,000); active = well fitted inhibition curve with a large enough effect; inconclusive = small, poorly fitted or top-dose-only effect; inactive = no such curve, though single readings can be large or run the other way;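 also: nearly all actives have a fitted effect of over 60% in size; nearly all hits also lower the signal before the agonist is added; a reference antagonist and vehicle were the controls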
Target sequence (P16066 whole entry, looked up): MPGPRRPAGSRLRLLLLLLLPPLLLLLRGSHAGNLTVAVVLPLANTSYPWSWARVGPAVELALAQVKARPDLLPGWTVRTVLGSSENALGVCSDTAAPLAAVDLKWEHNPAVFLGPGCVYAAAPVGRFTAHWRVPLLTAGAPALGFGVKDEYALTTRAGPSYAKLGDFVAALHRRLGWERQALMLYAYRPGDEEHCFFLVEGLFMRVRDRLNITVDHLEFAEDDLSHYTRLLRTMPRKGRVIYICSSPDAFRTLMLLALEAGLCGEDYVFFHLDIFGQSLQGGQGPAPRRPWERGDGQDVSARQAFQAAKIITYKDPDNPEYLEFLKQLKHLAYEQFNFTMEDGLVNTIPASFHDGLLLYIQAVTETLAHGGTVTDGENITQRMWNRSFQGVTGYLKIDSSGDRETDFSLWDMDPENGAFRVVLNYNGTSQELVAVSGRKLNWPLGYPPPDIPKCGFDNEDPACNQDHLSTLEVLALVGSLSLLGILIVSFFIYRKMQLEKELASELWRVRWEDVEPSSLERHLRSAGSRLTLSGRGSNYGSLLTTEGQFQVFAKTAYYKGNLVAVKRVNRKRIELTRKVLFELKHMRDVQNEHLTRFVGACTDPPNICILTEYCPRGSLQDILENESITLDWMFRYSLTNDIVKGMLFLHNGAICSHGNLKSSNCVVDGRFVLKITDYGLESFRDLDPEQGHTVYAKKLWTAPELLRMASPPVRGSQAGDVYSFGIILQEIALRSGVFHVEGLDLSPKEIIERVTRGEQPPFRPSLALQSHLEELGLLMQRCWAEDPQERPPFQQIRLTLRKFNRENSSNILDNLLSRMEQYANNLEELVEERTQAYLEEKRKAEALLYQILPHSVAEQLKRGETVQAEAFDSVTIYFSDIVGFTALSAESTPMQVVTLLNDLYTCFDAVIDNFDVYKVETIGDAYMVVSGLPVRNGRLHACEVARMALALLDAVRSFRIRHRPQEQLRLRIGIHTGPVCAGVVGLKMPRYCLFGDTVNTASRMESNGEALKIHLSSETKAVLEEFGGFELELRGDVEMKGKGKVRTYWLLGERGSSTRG
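Compound pre-incubated 30 min at room temperature on GloSensor-loaded HEK293 cells stably carrying hNpr1 and the pGS-40F cGMP biosensor. Stimulation uses hNppA at 0.1 nM final; luminescence is taken at baseline and 20 min post-agonist.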
Active calls of the source: *; [ ] = remark or other dose. % is scaled to controls: 0 for no effect and ±100 for the full control effect; potency is read from the fitted curve at half-maximal effect. The list is partial. The share of hits here may be higher or lower than overall.

The opening 3 entries (preview)
`Cn1nc(C(=O)N2CCCCCCNC(=O)[C@@H]3CCCC[C@@H]32)c2ccccc21` gave hNpr1 antagonist 11.4%.
`CCCc1nc(C(=O)N[C@@H]2CCOC[C@H]2Oc2ccccn2)cs1` gave hNpr1 antagonist -24.5%.
For COc1ccc(C(=O)N2CC(C(=O)NCCc3ccccc3)CC(c3ccccc3)C2)cc1OC (stereo unspecified) the results were hNpr1 antagonist -15.3%.

The list itself, previewed entries included:
`Cn1nc(C(=O)N2CCCCCCNC(=O)[C@@H]3CCCC[C@@H]32)c2ccccc21` gave hNpr1 antagonist 11.4%.
`CCCc1nc(C(=O)N[C@@H]2CCOC[C@H]2Oc2ccccn2)cs1` gave hNpr1 antagonist -24.5%.
For COc1ccc(C(=O)N2CC(C(=O)NCCc3ccccc3)CC(c3ccccc3)C2)cc1OC (stereo unspecified) the results were hNpr1 antagonist -15.3%.
Screening O=C1CCN(C(=O)c2ccccc2)CCCC(C(=O)NCc2cccc(C(F)(F)F)c2)CCN1 (stereo unspecified) returned hNpr1 antagonist 2.8%.
O=C(C1CCCN(C2CCN(C3Cc4ccccc4C3)CC2)C1)N1CCCC1 (stereo unspecified) was read as hNpr1 antagonist 0.6%.
COCCN1C(=O)c2ccccc2C(C(=O)Nc2ccc(NC(C)=O)cc2)C12CCCCC2 (stereo unspecified) was read as hNpr1 antagonist 1.6%.
Screening Cc1nc(CCNS(=O)(=O)c2ccc3c(c2)OCCO3)no1 returned hNpr1 antagonist 1.5%.
Screening Cc1ccc(-c2noc([C@@H]3Cc4nc[nH]c4CN3CC3CCCCC3)n2)cc1 returned hNpr1 antagonist 0.8%[70.6 µM].
Nc1ncncc1-c1noc([C@@H]2CCCN2Cc2cnc3ccccc3c2)n1 was read as hNpr1 antagonist -0.7%[70.6 µM].
For CCOc1ccccc1NC(=O)N1CCC2(CC1)CC(Cc1nc(COC)no1)CCO2 (stereo unspecified) the results were hNpr1 antagonist -5.8%.
Screening COc1ccc(CNC(=O)[C@@H]2Cc3c[nH]c4cccc(c34)[C@H](CC(C)C)N2)cc1 returned hNpr1 antagonist -11.9%[70.6 µM].
For CNC(=O)c1cccc(-c2cnc(Nc3ccc(F)c(Cl)c3)c3c2CCO3)c1 the results were hNpr1 antagonist -22.6%[70.6 µM].
`COc1ccc(Nc2ccc3c(n2)CN(Cc2ccccc2F)C(=O)CO3)cc1` gave hNpr1 antagonist inconclusive.
For CC(=O)N1CCN2C(=O)N([C@@H](C)c3ccccc3)C(=O)[C@@H]2C1 the results were hNpr1 antagonist -3.5%[70.6 µM].
Screening COCCCn1c(C)cnc1C1CCNC1 (stereo unspecified) returned hNpr1 antagonist -2.8%.
COc1ccc(F)c(CN2CCCC(O)(CN3CCC(CO)CC3)C2=O)c1 (stereo unspecified) was read as hNpr1 antagonist -0.7%.
For CN(C)[C@@H]1CO[C@H](CNC(=O)c2cccs2)[C@H]1O the results were hNpr1 antagonist -0.4%[70.6 µM].
O=C(NCc1ccnc2[nH]ccc12)c1cccc(Cl)c1 was read as hNpr1 antagonist 4.2%[70.6 µM].
O=C(Nc1ccc2ncnc(N3CCCC3)c2c1)c1ccc(Cl)s1 was read as hNpr1 antagonist -0.4%.
`CC(C)c1nc2c(c(-c3ccc(Cl)cc3)n1)CN(C(=O)c1ccccc1)CC2` gave hNpr1 antagonist -1.1%.
For COc1ccc(NC(=O)c2ccc3c(c2)N(C)C2CCCCCN2C3=O)cc1OC (stereo unspecified) the results were hNpr1 antagonist -23.0%.
For O=C1NCCCCCN(S(=O)(=O)c2ccc3c(c2)OCCO3)[C@H]2CCC[C@@H]12 the results were hNpr1 antagonist 3.1%.
For COC(=O)c1ccc2c(c1)nc1n2[C@@H](CNCc2ccc(F)c(F)c2)COC1 the results were hNpr1 antagonist -15.2%[70.6 µM].
CCOCC(=O)N1CCC(Nc2nccnc2OC)CC1 was read as hNpr1 antagonist 4.8%.
`Cc1ccccc1-c1noc(-c2ccc(NC(C)c3cnn(C)c3)nc2)n1` (stereo unspecified) gave hNpr1 antagonist 7.94µM*.
Screening O=C(c1c(OCC2CC2)cc(=O)n2c1CCOCC2)N1CCOCC1 returned hNpr1 antagonist 11.1%.
Screening CN(C)C(=O)c1ccn2cncc2c1 returned hNpr1 antagonist 0.0%[70.6 µM].
COc1cccc(N2C(=O)NC(=NC3CCCCC3)C23CCN(C(C)=O)C3)c1 (stereo unspecified) was read as hNpr1 antagonist 0.6%.
Screening Cc1noc(-c2ccc(OC3CN(C(=O)c4cccc5[nH]ccc45)C3)cc2)n1 returned hNpr1 antagonist inconclusive.
Screening COc1cc(NC(=O)Cn2c(C)cc3nc4n(c(=O)c32)CCCC4)cc(OC)c1 returned hNpr1 antagonist -18.3%.
Screening COc1ccc(-c2cc3c(ccn3C)c(C(=O)NCCc3cnc[nH]3)n2)cn1 returned hNpr1 antagonist 3.4%[70.6 µM].
For COc1cccc(-c2nc(N3CCOCC3)cc3c2CN(CC2CC2)C3=O)c1 the results were hNpr1 antagonist -0.7%[70.6 µM].
`CN1CC[C@H]2CN(C(=O)c3cn(-c4ccccc4)nn3)C[C@@]2(C(=O)O)C1` gave hNpr1 antagonist 0.4%.
Screening C#CCNC(=O)CC[C@H]1CNC(=O)[C@@H]2[C@@H](CCN2Cc2ncc[nH]2)N1C returned hNpr1 antagonist 0.1%[70.6 µM].
For CC(C)C(=O)NCC12CCC=C1N(C)C(=O)CC2 (stereo unspecified) the results were hNpr1 antagonist 11.0%.
Screening COc1cccc(CNC(=O)CN2CC3CC(C2)[C@H]2CCCC(=O)N2C3)c1 (stereo partly specified) returned hNpr1 antagonist 1.7%.
For CNCC(=O)N1CCCC(N2CCN(Cc3ccc4c(c3)OCO4)CC2)C1 (stereo unspecified) the results were hNpr1 antagonist 7.5%.
For O=C(c1ccc2nccn2c1)N(Cc1c(F)cccc1Cl)C1CC1 the results were hNpr1 antagonist -8.6%.
Screening COc1ccc(N2CC(C(=O)NCC3CC3)NC2=O)cc1 (stereo unspecified) returned hNpr1 antagonist -3.9%[70.6 µM].
Screening Cc1ccc(NC(=O)c2ccc3c(c2)N(C)C2CCCCN2C3=O)cc1C (stereo unspecified) returned hNpr1 antagonist -3.3%.
Screening COC1CCOC2(CCN(S(=O)(=O)c3ccccc3)CC2)C1 (stereo unspecified) returned hNpr1 antagonist 9.1%.
`O=C1CC2(CCN(C(=O)C3(c4ccc(F)cc4)CCOCC3)C2)C(=O)N1` (stereo unspecified) gave hNpr1 antagonist -0.8%.
`COCCc1noc(CC2CCOC3(CCN(C(=O)CCC4CCCC4)CC3)C2)n1` (stereo unspecified) gave hNpr1 antagonist -2.9%.
`Cc1ccc(C(=O)N2CCC3(CC2)NC(=O)N(c2cccc(F)c2)N3)s1` gave hNpr1 antagonist 5.7%.
Screening CCc1ccc(C(=O)N2CCC(c3n[nH]c(=O)n3Cc3ccc(F)cc3)CC2)cc1 returned hNpr1 antagonist -24.3%.
CC1=C(C(=O)OC(C)C)C(c2ccccc2Cl)N2C(CC(=O)NCC3CC3)=CSC2=N1 (stereo unspecified) was read as hNpr1 antagonist 11.2µM*.
`COc1ccccc1N1CC2(C1)CN(c1ccccc1)C(=O)O2` gave hNpr1 antagonist -1.5%[70.6 µM].
For O=C(CCC1CCCC1)N1CCCCCC1CN1CCOCC1 (stereo unspecified) the results were hNpr1 antagonist 1.5%.
For COc1cccc(CNC(=O)CN2C(=O)NC3(CCC(C)CC3)C2=O)c1 (stereo unspecified) the results were hNpr1 antagonist 3.1%.
Screening CC(=O)NC1(C)CCN(Cc2ccc(-c3cccc(C(F)(F)F)c3)cc2)C1 (stereo unspecified) returned hNpr1 antagonist -15.1%[70.6 µM].
Screening O=C(CCc1ccc(O)cc1)N1C[C@@H](CN2CCOCC2)[C@@H](CO)C1 returned hNpr1 antagonist 5.3%.
For COCCN1CCC(CN(Cc2ccncc2)C(=O)c2scnc2C)CC1 the results were hNpr1 antagonist 2.3%.
CC(C)CCNC(=O)c1cnc2c(c1)N(Cc1ccccc1)CCC2 was read as hNpr1 antagonist -15.7%[70.6 µM].
Screening CC(C)C1CN(C(=O)CNC(=O)N(C)C)CCCN1Cc1ccc(F)cc1 (stereo unspecified) returned hNpr1 antagonist 3.8%.
`Cc1ccc(C2Cn3nnc(C(=O)N4CCC(C(=O)NCc5ccccn5)CC4)c3CO2)cc1` (stereo unspecified) gave hNpr1 antagonist -3.7%.
Screening CC(=O)N1CC2(Cc3ccccc31)CN(C(=O)Nc1ccc(Cl)cc1)C2 returned hNpr1 antagonist -7.6%.
For O=C(NCCOc1ccccc1)C1CCCN(c2nc3ncccc3o2)C1 (stereo unspecified) the results were hNpr1 antagonist -5.9%.
COCCn1c(=O)n([C@H]2CCCN(S(=O)(=O)c3cn(C)cn3)C2)c2ncccc21 was read as hNpr1 antagonist 1.7%.
For CCCNC(=O)NC[C@@H]1C=C(C)[C@H](Cc2nc3ccc(C(=O)OC)cc3[nH]2)C[C@H]1C(C)C the results were hNpr1 antagonist -25.6%.
Screening Cc1nn(C)c(C)c1CCC(=O)N1C[C@@H](Oc2ccccc2)C[C@H]1C(=O)NC1CC1 returned hNpr1 antagonist 1.2%.

Reprinted at random: two compounds from above.
Screening CC(=O)NC1(C)CCN(Cc2ccc(-c3cccc(C(F)(F)F)c3)cc2)C1 (stereo unspecified) returned hNpr1 antagonist -15.1%[70.6 µM].
For O=C(CCC1CCCC1)N1CCCCCC1CN1CCOCC1 (stereo unspecified) the results were hNpr1 antagonist 1.5%.

(cont.)
For Cc1noc2c(-c3cccnc3NCCN(C)C)cc(-c3ccccc3)nc12 the results were hNpr1 antagonist 0.7%[70.6 µM].
For COc1ccc(NC(=O)O[C@@H]2C=C[C@H](c3c(C)nn(-c4ccccc4C)c3C)C2)cc1 the results were hNpr1 antagonist -3.8%[70.6 µM].
Screening COc1ccc(CC(=O)Nc2ccc([C@H]3OCC(=O)N(Cc4ccc(F)cc4)[C@@H]3CO)cc2)cc1 returned hNpr1 antagonist 2.9%.
COc1ccccc1CCC(=O)N1C[C@@H](CO)[C@H](NC(C)=O)C1 was read as hNpr1 antagonist 0.5%.
CCCN1CCN(C(=O)c2ccc3c(c2)n(Cc2ccc(F)cc2)c(=O)c2ccnn23)CC1 was read as hNpr1 antagonist -0.7%.
Screening COCC1CN(C(=O)Cn2c(=O)oc3ccccc32)CC12CCNCC2 (stereo unspecified) returned hNpr1 antagonist 0.1%.
`Cc1ncsc1CCC(=O)N(C/C=C/c1ccccc1)CC1CCCO1` (stereo unspecified) gave hNpr1 antagonist -7.3%.
`CC(C)CN(Cc1cnn(C)c1)C(=O)C1CCC(=O)N(CC2CCCCC2)C1` (stereo unspecified) gave hNpr1 antagonist 4.3%.
For O=C1NC[C@@H](CCC(=O)N2CCN(c3ccccc3)CC2)N2C[C@@H](NCc3ccccn3)C[C@@H]12 the results were hNpr1 antagonist 6.2%.
CCCc1cc(C(=O)NCc2c(C)ncc3c2CCNC3)n[nH]1 was read as hNpr1 antagonist 0.9%.
`Cc1nc(-c2ccc(F)cc2)n(CC(=O)Nc2ccccc2)c(=O)c1CCO` gave hNpr1 antagonist 0.8%.
COc1ccc(NC(=O)NCCc2noc(C3CC3)n2)c(C)c1 was read as hNpr1 antagonist 1.9%.
Cc1cccc(NC(=O)C2CCN(C(=O)c3nnn4cc(C)[nH]c(=O)c34)CC2)c1 was read as hNpr1 antagonist -5.6%.
For CC(C)n1cnnc1CC1CCN(C(=O)c2nn(C)c3ccccc23)C1 (stereo unspecified) the results were hNpr1 antagonist -1.0%.
Cc1ccc(-c2cnc([C@@H]3COCCN3Cc3cnc[nH]3)[nH]2)cc1 was read as hNpr1 antagonist 3.7%[70.6 µM].

Structures listed so far containing a CF3 group:
Screening O=C1CCN(C(=O)c2ccccc2)CCCC(C(=O)NCc2cccc(C(F)(F)F)c2)CCN1 (stereo unspecified) returned hNpr1 antagonist 2.8%.
Screening CC(=O)NC1(C)CCN(Cc2ccc(-c3cccc(C(F)(F)F)c3)cc2)C1 (stereo unspecified) returned hNpr1 antagonist -15.1%[70.6 µM].

Further structures
`Cn1cc(CN2CCN(C(c3ccccc3)c3ccccc3)CC2)cc1C#N` gave hNpr1 antagonist -3.5%.
`CN(C)C(=O)C1CN(C(=O)c2ccc(Br)o2)CC12CCOCC2` (stereo unspecified) gave hNpr1 antagonist 1.2%.
Cc1cc2[nH]cnc2c(NC(=O)CCc2cc3n(n2)CCNC3)c1C was read as hNpr1 antagonist 2.7%.
COC(=O)CC(NC(=O)N1CCc2c(nc(-c3ccccc3)[nH]c2=O)C1)c1ccccc1 (stereo unspecified) was read as hNpr1 antagonist -12.4%.
`COc1ccccc1-c1cc2c(ccn2C)c(C(=O)NCC2CCN(C)C(=O)C2)n1` (stereo unspecified) gave hNpr1 antagonist 3.0%[70.6 µM].
`O=[S+]1([O-])NCC2(CCN(Cc3ccsc3)C2)Nc2ccccc21` (stereo unspecified) gave hNpr1 antagonist 16.4%.
`CC(=O)NC1CCN(Cc2cc3ccc(C)cc3[nH]c2=O)C1` (stereo unspecified) gave hNpr1 antagonist 10.8%.
Screening CC(C)c1ccc(CNC(=O)c2ccc3c(c2)N(C)C2CCCCN2C3=O)cc1 (stereo unspecified) returned hNpr1 antagonist -6.0%.
For O=C1CCCCC(CNC(=O)c2n[nH]c(=O)c3ccccc23)N1 (stereo unspecified) the results were hNpr1 antagonist 7.0%.
Screening COc1ccc(CNC(=O)[C@@H]2Cc3cn(CC4CC4)c4cccc(c34)[C@H](CC(C)C)N2)cc1 returned hNpr1 antagonist 3.8%.
Screening Cc1ccc(C(=O)N2CCC([C@@H]3CNC[C@H]3CO)CC2)cc1F returned hNpr1 antagonist 3.4%.
Cc1ccc(-c2nnc(C3CN(C(=O)c4cnc(C)cn4)CC34CCOCC4)o2)cc1 (stereo unspecified) was read as hNpr1 antagonist -2.5%.
For COCC(=O)Nc1ccc(-c2noc([C@@H]3CCCN3Cc3ncc[nH]3)n2)cn1 the results were hNpr1 antagonist 4.1%[70.6 µM].
Screening COCC(=O)NC[C@H]1OC[C@@H](NCc2cnc[nH]2)[C@@H]1O returned hNpr1 antagonist 3.8%[70.6 µM].
